# TRPV1 potentiator: human TRPV1 potentiation; Q8NER1; TRPV1-expressing cells, Fluo-8 calcium influx, capsaicin EC20 potentiation; host cell line not named in the record; control for the full effect not named in the record; potentiation, % at 8.33 µM; 320,000 compounds, 0.02% hits; AID 540277; active means potentiation above 80%; inconclusive means 30% to 80%; inactive means below 30%; further: 0% is about no effect
#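 TRPV1-expressing cells were cultured overnight at 35.5C and loaded with Fluo-8 calcium dye for 40 to 90 min at room temperature. After a 10 s baseline, compound was added and calcium influx was read kinetically for 3 min (ex 480/em 520 nm).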
# Six1-Eya2 inh: Six1/Eya2 interaction inhibition. AID 651725. AlphaScreen GST-Six1/His-Eya2 binding, biochemical; stronger effect = lower value; control for the full effect not named in the record. 360,000 compounds, 0.56% hits. activity change, % (test concentration not listed); in the data active = activity change below about -65%; inconclusive = about -30% to -65%; inactive = above about -30%; further: on the % scale 0 is the no-effect control and ±100 the full control effect
#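 Six1/Eya2 binding was read as AlphaScreen signal after compounds were pinned into GST-Six1 plus His-tagged Eya2 (5X stock 250/500 nM) in pH 8.0 Tris/NaCl/TCEP buffer, beads added, then incubated 1 h, 37 C, dark.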
# D2 PAM: potentiates the human D2 dopamine receptor allosterically; 360,000 compounds, 0.23% hits; DiscoveRx D2 beta-arrestin cells, luminescence, 90 min; 100% = 57 uM dopamine signal; potentiation, % (no concentration beside the values); active = potentiation of 50% or more; inconclusive = 30% to 50%; inactive = 30% or less;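 further: compound concentration not given in the record; tested on top of an EC20 dose of dopamine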
# Target sequence (P14416 whole entry, looked up): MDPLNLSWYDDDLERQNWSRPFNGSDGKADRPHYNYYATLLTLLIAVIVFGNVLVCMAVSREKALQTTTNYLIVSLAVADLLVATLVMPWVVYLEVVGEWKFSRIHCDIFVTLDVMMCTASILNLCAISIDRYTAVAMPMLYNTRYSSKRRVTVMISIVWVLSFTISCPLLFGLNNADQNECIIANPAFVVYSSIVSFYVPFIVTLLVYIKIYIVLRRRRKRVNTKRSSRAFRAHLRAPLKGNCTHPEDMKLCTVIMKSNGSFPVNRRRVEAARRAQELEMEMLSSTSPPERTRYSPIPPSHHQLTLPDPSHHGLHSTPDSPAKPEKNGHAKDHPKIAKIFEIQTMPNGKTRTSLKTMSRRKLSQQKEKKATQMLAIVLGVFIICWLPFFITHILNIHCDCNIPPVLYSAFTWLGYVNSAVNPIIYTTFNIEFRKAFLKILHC
#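 PathHunter beta-arrestin assay in DiscoveRx D2 cells. Compounds were added with an EC20 of dopamine (50 nM final) for 90 min at 37 deg C. Luminescence was read 1 h after detection reagent, with 57 uM dopamine as the EC100 control.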
# Sfp inh: Sfp phosphopantetheinyl transferase inhibition; Biochemical Sfp PPTase activity, qHTS; Potency, µM, for the others: max response, negative = inhibition, actives largely listed as inhibitors; 310,000 compounds, 3.5% hits; active means well fitted inhibition curve with a large enough effect; inconclusive means small, poorly fitted or top-dose-only effect, or another doubt; inactive means no such curve, though single readings can be large or run the other way;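 further: the enzyme is Sfp with the accession as filed and its product quenches rhodamine fluorescence; potency means the concentration at half of the fitted maximal effect; 0% = enzyme reaction without inhibitor and -100% = no enzyme wells; top concentration of the series not given in the record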
#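 Reaction rates are the 30-min fluorescence difference (ex 525, em 598 nm) in wells containing 15 nM Sfp, 5 uM rhodamine-CoA and 12.5 uM BHQ-2-YbbR at pH 7.6 with 10 mM MgCl2.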
# PINK1 expr mod: modulators of PINK1 expression; Potency, µM (doses to about 76.6 µM), without a hit: at the top dose activation (PINK1 increase), actives largely listed as activators; AID 624263; PINK1 immunofluorescence, high-content cytometry, 24 h; 410,000 compounds, 0.2% hits; active = well fitted activation curve with a large enough effect; inconclusive = small, poorly fitted or top-dose-only effect; inactive = flat fitted curve, though single readings scatter; cell line not stated here;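 further: potency means the concentration at half of the fitted maximal effect; % of control where 0% means no effect; nearly all actives have a fitted effect of over 65% in size; a mitochondrial uncoupler was the plate control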
#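 PINK1 protein level read as immunofluorescence by microplate cytometer in a fixed, stained stable cell line after 24 h exposure to five compound concentrations, with CCCP as control.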
# CtBP-E1A inh: CtBP/E1A binding inhibition; AlphaScreen GST-E1A/His-CtBP binding, 1536-well; stronger effect = lower value; control for the full effect not named in the record; activity change, % (test concentration not listed); AID 651724; 340,000 compounds, 0.49% hits; in the data active means activity change below about -65%; inconclusive means about -30% to -65%; inactive means above about -30%; further: on the % scale 0 is the no-effect control and ±100 the full control effect
#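 Protein mix (5X: 125 nM each GST-E1A, His-CtBP) was incubated with pinned compound 2 h at 37 deg C in dark, in 50 mM Tris pH 8.0 buffer with 300 mM NaCl. Glutathione donor and nickel acceptor beads followed; AlphaScreen signal read after 1 h.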
# D2 ag: human D2 receptor agonism in beta-arrestin assay; P14416; DiscoveRx PathHunter D2 beta-arrestin, luminescence, 90 min; 100% = 57 uM dopamine signal; activation, % (concentration not given with the values); 360,000 compounds, 0.084% hits; in the data active = activation above about 40%; inconclusive = about 15% to 40%; inactive = below about 15%; further: the text of the record calls up to 30% inactive
#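 DiscoveRx PathHunter D2 beta-arrestin cells (2,100/well) attached overnight, then compound-stimulated 90 min at 37 C in HBSS/10 mM HEPES/0.1% Tween-20 buffer; beta-galactosidase complementation read by luminescence after 1 h at ambient temperature. Dopamine 57 uM final (EC100) as control.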
# * marks the source's active call; other numbers are inactive results; ? = inconclusive; . = not tested or not shown; & = joins results of further samples; [ ] = dose if it differs, or a comment.
# Keys: A = TRPV1 potentiator; B = Six1-Eya2 inh; C = D2 PAM; D = Sfp inh; E = PINK1 expr mod; F = CtBP-E1A inh; G = D2 ag
> CCN(CC)C(=O)CSc1nnc(-c2ccco2)o1
  A = 3 | B = -7 | C = -8 | D = -3% | E = 0.9% | F = -9 | G = 0.5
> Cc1ccc(NC(=O)CSc2nnc(N)s2)cc1S(=O)(=O)N1CCCCC1
  A = -5 | B = -4 | C = -12 | D = -5% | E = 4.0% | F = -8 | G = -5.5
> O=C(Nc1cccc(O)c1)c1ccc(Br)cc1
  A = . | B = -3 | C = 9 | D = 8% | E = ? | F = 1 | G = 1.1
> CC(C)CC(O)C1CCN(C(=O)CCc2nnc(-c3ccc4c(c3)OCO4)o2)CC1 (stereo unspecified)
  A = -1 | B = -1 | C = 4 | D = 6% | E = 2.4% | F = -6 | G = -0.2
> COc1cc(OC)cc(-c2nnc(SCC(=O)N3CCCCC3)o2)c1
  A = -19 | B = 3 | C = -1 | D = 11% | E = 1.2% | F = 6 | G = -1.3
> N#Cc1c(C(F)(F)F)cc(-c2cccs2)nc1SCc1ccc(Cl)nc1
  A = 16 | B = 2 | C = -7 | D = 22µM* | E = ? | F = 19 | G = -0.6
> COc1nc(C)ccc1-c1noc(-c2ccccn2)n1
  A = 0 | B = 0 | C = 2 | D = 4% | E = -3.8%[38.3 µM] | F = -8 | G = -3.7
> CC1Cc2ccccc2N1c1ncnc2nc[nH]c12 (stereo unspecified)
  A = 4 | B = -11 | C = -5 | D = -5% | E = -1.7% | F = -2 | G = -3.2
> CCOC(=O)C1CCN(c2ncnc3c2cnn3-c2ccc(Cl)cc2)CC1
  A = 1 | B = 11 | C = -11 | D = -16% | E = 0.5% | F = -5 | G = 1.3
> CCn1ncc(Br)c1C(=O)Nc1c(C)nn(Cc2c(F)c(F)c(F)c(F)c2F)c1C
  A = 9 | B = 10 | C = 2 | D = 0% | E = -0.3% | F = 13 | G = -3.0
> CC(C(=O)OCC(=O)NC1CCCCC1)N1C(=O)c2ccccc2C1=O (stereo unspecified)
  A = . | B = 8 | C = 12 | D = . | E = 2.5% | F = . | G = 4.6
> O=C1OC(c2ccc(F)cc2)CC1CN1CCOCC1 (stereo unspecified)
  A = . | B = 0 | C = 1 | D = . | E = 0.0% | F = 8 | G = 3.8
> CCC(=O)N1CCCN(S(=O)(=O)c2ccc(C)cc2)C1c1ccc(OC)cc1 (stereo unspecified)
  A = -14 | B = 1 | C = -4 | D = 6% | E = -0.3% | F = -1 | G = -3.9
> COc1cccc(NC(=O)Cn2c(=O)n(CCC(=O)NC3CCN(Cc4ccccc4)CC3)c(=O)c3ccccc32)c1
  A = 8 | B = 12 | C = -9 | D = -11% | E = 1.0% | F = -15 | G = -3.6
> C#Cc1ccc([C@@H]2C=C(C(=O)OCC=C)O[C@H](OCc3ccc(CO)cc3)C2)cc1
  A = -8 | B = -6 | C = -13 | D = 8% | E = 0.8% | F = -4 | G = -2.3
> CC1CC(C)(C)NC(=S)N1CCCC(=O)Nc1ccccc1F (stereo unspecified)
  A = 12 | B = 0 | C = -3 | D = 7% | E = 0.1% | F = 0 | G = 3.1
> Cc1ccc2[nH]c3c(=O)n(CC(=O)Nc4ccccc4N4CCN(C)CC4)ncc3c2c1
  A = 8 | B = -2 | C = -36 | D = 16% | E = -1.3% | F = -21 | G = -3.3
> CC1CCC2(CC1)NC(=O)N(Cc1cc(=O)n3ccsc3n1)C2=O (stereo unspecified)
  A = ? | B = -5 | C = 4 | D = -7% | E = 9.2% | F = 0 | G = -0.7
> CC(C)NS(=O)(=O)c1ccc(CCC(=O)NCc2cccnc2)cc1
  A = 24 | B = 11 | C = -2 | D = 3% | E = -2.1% | F = 3 | G = -0.7
> COc1ccc2[nH]c(=O)c(COC(=O)c3cccs3)cc2c1
  A = 0 | B = -2 | C = 2 | D = 8% | E = 13% | F = 12 | G = -6.3
> Cc1cc(=O)n2nc(N3CCC(C(=O)NCc4ccccc4Cl)CC3)sc2n1
  A = 9 | B = -11 | C = -11 | D = 6% | E = -0.6%&0.3% | F = ? | G = 7.0
> CCOC(=O)c1[nH]c(C)c(C(=O)Nc2ccc(F)cc2)c1C
  A = -8 | B = -6 | C = -4 | D = -11% | E = 2.8% | F = 5 | G = -3.2
> COc1cccc(NC(=O)NC2CCN(Cc3nnnn3Cc3ccc4c(c3)OCO4)CC2)c1
  A = 5 | B = -4 | C = -8 | D = 1% | E = 0.5% | F = . | G = -4.8
> COc1ccc(CC(=O)Nc2nc3ccccc3s2)cc1S(=O)(=O)N1CCOCC1
  A = 0 | B = -6 | C = -5 | D = 4% | E = 0.5% | F = -13 | G = -2.6
> Cc1onc(-c2ccccc2)c1C(=O)NNC(=S)NC(=O)c1ccc(Br)cc1
  A = -8 | B = -17 | C = -28 | D = 10% | E = ? | F = -6 | G = -6.7
> CCCC(=O)Nc1c(-c2cccc(C)c2)c(=O)c2ccccc2n1C
  A = 3 | B = -3 | C = -4 | D = 4% | E = 1.0% | F = 2 | G = -2.2
> CC1(C)C2CCC1(CS(=O)(=O)N1CCCC1C(=O)O)C(=O)C2 (stereo unspecified)
  A = . | B = 2 | C = -10 | D = . | E = 2.2% | F = -7 | G = -3.5
> COc1ccccc1N=c1sc2ccccc2n1C
  A = 28 | B = -1 | C = -10 | D = 56µM* | E = 0.9%[38.3 µM] | F = 25 | G = -4.6
> N#Cc1ccc(-c2cn3c(n2)SCC3)cc1
  A = ? | B = -3 | C = 3 | D = 5% | E = 1.3% | F = . | G = -0.2
> CC(=O)NCCNC(=O)c1ccc(Sc2ccccc2)c([N+](=O)[O-])c1
  A = -3 | B = -17 | C = 28 | D = 7% | E = 5.4% | F = . | G = 0.4
> COc1ccc(NS(=O)(=O)c2ccc(C)cc2)c([N+](=O)[O-])c1
  A = 16 | B = -4 | C = -8 | D = 11% | E = 0.3% | F = -2 | G = -0.9
> CCC(=O)Nc1ccccc1C(=O)OCC(=O)c1cccc2ccccc12
  A = 5 | B = 6 | C = 12 | D = 7% | E = -0.2% | F = 5 | G = -0.9
> C=CCn1c(=N)n(CC(=O)c2ccc(Br)cc2)c2ccccc21
  A = -13 | B = 80 | C = -17 | D = -2% | E = -2.0% | F = 10 | G = -6.3
> CC1(C(=O)NCc2ccccc2Br)CCN1Cc1ccc(-c2ccccn2)cc1 (stereo unspecified)
  A = . | B = -18 | C = -7 | D = . | E = 1.4% | F = -6 | G = 11
> Cc1ccsc1/C=C/C(=O)O
  A = 4 | B = 3 | C = -3 | D = 12% | E = 2.8% | F = 5 | G = 2.1
> CCOC(=O)[C@]12CCC=C1N(Cc1ccccc1)C(=O)[C@H](CC(=O)N1CCN(C(=O)c3ccco3)CC1)C2
  A = . | B = 15 | C = . | D = . | E = 1.5% | F = -24 | G = .
> C=CCn1c(Sc2nc(C)cs2)nc2c1c(=O)[nH]c(=O)n2C
  A = -2 | B = 2 | C = -15 | D = 0% | E = -4.7%[38.3 µM] | F = 4 | G = -1.0
> COc1ccc(N(CC(=O)Nc2ccc(C)cn2)S(=O)(=O)c2c(C)nn(C)c2C)cc1
  A = . | B = -4 | C = -4 | D = 13% | E = -0.6% | F = 4 | G = 3.4
> COc1ccc(C(=O)/C=C(\C)NCc2ccc3c(c2)OCO3)cc1
  A = -8 | B = -8 | C = -11 | D = -1% | E = 0.5% | F = 0 | G = -2.7
> COc1ccccc1N1CCN(C(=O)CCCCn2c(=O)[nH]c3ccsc3c2=O)CC1
  A = . | B = -4 | C = 0 | D = 2% | E = 1.6% | F = -10 | G = -3.1
> COc1ccc(C)cc1S(=O)(=O)N1CCN(C)CC1c1ccccc1 (stereo unspecified)
  A = -5 | B = 4 | C = -4 | D = . | E = -3.9% | F = -9 | G = -2.6
> CCc1cccc(NS(=O)(=O)c2csc(C(N)=O)c2)c1
  A = 10 | B = 3 | C = -3 | D = 6% | E = 2.7% | F = 4 | G = 0.8
> O=C(C[n+]1cccc(C(=O)Nc2ccccc2)c1)c1ccccc1
  A = . | B = -21 | C = . | D = . | E = 2.0% | F = -7 | G = .
> CCNC(=O)c1ccccc1SCC(=O)Nc1ccc(F)cc1
  A = ? | B = 22 | C = -7 | D = -12% | E = 0.2% | F = 11 | G = -3.1
> OCC1(Cc2ccc(F)cc2)CCCN(CCc2ccccc2)C1 (stereo unspecified)
  A = -1 | B = -7 | C = -23 | D = 11% | E = 11% | F = -2 | G = -1.5
> O=C(c1[nH]ncc1[N+](=O)[O-])N1CCOCC1
  A = 4 | B = -2 | C = -16 | D = -14% | E = 1.4% | F = -13 | G = -3.8
> Nc1cc(S(=O)(=O)Nc2cc(Cl)ccc2Cl)ccc1N1CCOCC1
  A = 3 | B = 3 | C = -1 | D = 11µM* | E = 4.4% | F = -3 | G = 4.5
> COc1cccc(/C=N/Nc2cc(C)nc(-c3ccccc3O)n2)c1O
  A = -3 | B = -16 | C = -8 | D = 12% | E = -0.9% | F = -20 | G = -12
> CCCNC(=O)c1nc(C)c(C)nc1C(=O)Nc1cccc(Cl)c1
  A = -7 | B = 9 | C = -40 | D = 14% | E = -2.6% | F = 9 | G = -1.5
> O=C(CN1CCN(Cc2ccccc2Cl)C1=O)NCc1cccnc1
  A = -3 | B = 4 | C = -10 | D = 29% | E = -1.2% | F = . | G = -3.6
> O=C(CCCCCn1c(=O)[nH]c2ccsc2c1=O)NCc1ccc(F)cc1
  A = -3 | B = 4 | C = -16 | D = 14% | E = -0.9% | F = -13 | G = 1.8
> COc1ccc(C2C(C#N)=C(N)N(c3ccccc3)C3=C2C(=O)CCC3)cc1Cn1cc([N+](=O)[O-])cn1 (stereo unspecified)
  A = 10 | B = -3 | C = -14 | D = -15% | E = 0.7% | F = -2 | G = -1.5

# Part of the list above, with values under each structure.
# Value order – TRPV1 potentiator | Six1-Eya2 inh | D2 PAM | Sfp inh | PINK1 expr mod | CtBP-E1A inh | D2 ag
- COc1cccc(/C=N/Nc2cc(C)nc(-c3ccccc3O)n2)c1O
 : -3 | -16 | -8 | 12% | -0.9% | -20 | -12
- CCCNC(=O)c1nc(C)c(C)nc1C(=O)Nc1cccc(Cl)c1
 : -7 | 9 | -40 | 14% | -2.6% | 9 | -1.5
- O=C(CN1CCN(Cc2ccccc2Cl)C1=O)NCc1cccnc1
 : -3 | 4 | -10 | 29% | -1.2% | . | -3.6
- O=C(CCCCCn1c(=O)[nH]c2ccsc2c1=O)NCc1ccc(F)cc1
 : -3 | 4 | -16 | 14% | -0.9% | -13 | 1.8
- COc1ccc(C2C(C#N)=C(N)N(c3ccccc3)C3=C2C(=O)CCC3)cc1Cn1cc([N+](=O)[O-])cn1 (stereo unspecified)
 : 10 | -3 | -14 | -15% | 0.7% | -2 | -1.5

# Rows are unselected; any-hit rate near 3.7%.
